# Screening results (PubChem BioAssay)
# Vaccinia mCherry = inhibitors of vaccinia virus infection (mCherry reporter signal); AID 720579; Potency, µM (series often up to 36.5 µM), for the others: top-dose activity change, negative = inhibition, hits mostly inhibitors; Vaccinia virus mCherry reporter infection, fluorescence; about a quarter of the inactives have no number; 310,000 compounds, 0.63% hits; active = well fitted inhibition curve with a large enough effect; inconclusive = small, poorly fitted or top-dose-only effect; inactive = no such curve, though single readings can be large or run the other way; tested in A549 cells; note: nearly all actives have a fitted effect of over 35% in size; inactives centre near -10
# Vaccinia Venus = vaccinia inhibition (Venus reporter); Vaccinia virus Venus reporter expression, fluorescence; Potency, µM (titrated, usually from 36.5 µM), for the others: top-dose activity change, negative = inhibition, actives largely listed as inhibitors; 330,000 compounds, 0.46% hits; AID 720580; active means well fitted inhibition curve with a large enough effect; inconclusive means small, poorly fitted or top-dose-only effect; inactive means no such curve, though single readings can be large or run the other way; tested in A549 cells; note: nearly all actives have a fitted effect of over 30% in size; inactives centre near -10
# The depositor's hits bear a star; i = inactive; u = inconclusive; x = no result given; & = joins results of further samples; [ ] = remark or other dose. % is set by controls: 0 for no effect and ±100 for the full control effect; potency is the fitted concentration of half-maximal effect. Random draw from the library. Share with any hit: about 0.82%.
SMILES,Vaccinia mCherry,Vaccinia Venus
COc1cc(CNCCO)cc(Cl)c1OCc1ccc(Cl)cc1Cl,u,u
O=C(NC1CC1)c1cc(OCC(F)(F)F)ccc1OCC(F)(F)F,i,-12%
COc1ccc(NC(=O)CSc2nnc3ccc(-c4ccncc4)nn23)cc1,i,-6%
O=C(Nc1sc2c(c1C(=O)O)CCCCC2)c1cccs1,-6%,u
COc1ccc([C@H]2CC(=O)C=C(c3c(C)cc(C)cc3C)C2)cc1,i,-2%
COc1cc(NC(c2ccccc2)c2ccccc2)cc(OC)c1OC,-26%,-10%
CC(C)c1ccc(NC(=O)c2cnn3c(C(F)F)cc(-c4ccccc4)nc23)cc1,-15%,-15%
CCCN(CC(=O)Nc1ccccc1OC)C(=O)c1ccncc1,i,-2%
COc1cc(/C=C2\N=C(c3c(-c4ccccc4)noc3C)OC2=O)ccc1OC(C)=O,-4%,-1%
CC(=O)Nc1ccc(NC(=O)c2ccc(S(=O)(=O)N3CCCCCC3)cc2)cc1,i,-17%
O=C(COc1ccccc1Cc1ccccc1)Nc1cccc(S(=O)(=O)N2CCOCC2)c1,-8%,-24%
CCC(=O)N/C(=N/c1nc(C)cc(C)n1)Nc1cccc(OC)c1,-9%,-18%
COc1ccc(-c2nc3n(n2)C(c2ccc(OC)c(OC)c2)C(C(=O)Nc2cccnc2)=C(C)N3)cc1 (centres undefined),i,-8%
COc1ccc(C(=O)Oc2cc(-c3ccc4c(c3)OCO4)cc(=O)c3c(C)oc(C)c23)cc1,-2%,27%
Cc1ccc(N2Cc3ccccc3C2=N)cc1[N+](=O)[O-],-19%,-16%
O=[N+]([O-])c1cc(S(=O)(=O)N2CCOCC2)ccc1OCc1ccccc1C(F)(F)F,-14%,-17%
COCCCNC(=O)/C(C#N)=C/c1ccc(F)cc1,-6%,-3%
O=C(Cn1c(SCC(=O)Nc2ccc(F)cc2)nc2ccccc21)NCc1ccccc1Cl,u,-25%
O=C(COc1c(Br)cc(Br)c2cccnc12)N1CCc2ccccc2C1,-1%,-19%
COc1cccc(CC(=NO)c2cccc(OC)c2)c1,u,-13%
CCOC(=O)C1CCCN(C(=O)c2ccccc2OC(F)(F)F)CC1 (centres undefined),28%,-11%
CC1=C(C(=O)OCC2CCCO2)C(c2cccc(O)c2)NC(=O)N1 (centres undefined),-27%,-11%
CCn1c(-c2ccccc2Cl)nn(CC(=O)Nc2ccccc2OC)c1=S,x,-14%
Cc1cc(-c2ccccc2)nc(N/N=C/c2ccc(O)cc2O)n1,u,u
CCCN1CCN(C(=O)c2ccc(CS(=O)c3ccc(Br)cc3)o2)CC1 (centres undefined),-7%,-3%
SMILES,Vaccinia mCherry,Vaccinia Venus
CN(Cc1ccccc1)C(=O)c1ccc(NC(=O)c2ccccc2)cc1,-11%,-21%
CCCCC1=CC2=C(c3ccco3)C(=O)C(C)(OC(=O)c3ccc(OC)cc3)C(=O)C2=CN1CCN1CCOCC1 (centres undefined),i,-8%
O=c1cc(O)c2ccccc2[nH]1,-12%,-11%
COC(=O)COc1cccc(NC(=O)c2cccs2)c1,-20%,-2%
O=C(CCCOc1ccccc1)NNC(=O)c1ccncc1,i,-15%
O=C(CN1C(=O)c2ccccc2S1(=O)=O)c1ccccc1F,-6%,-9%
Cc1cc(N2CCN(S(=O)(=O)c3ccccc3)CC2)c2ccccc2n1,u,u
C(CCN1CCOCC1)CN1CCOCC1,43%[activator],-2%
CC(Oc1nc2c(c(=O)n(C)c(=O)n2C)n1C)C1CCCCC1 (centres undefined),u,u
CCN(CC)CCn1c(=S)[nH]c2ccc(Br)cc2c1=O,-15%,-1%
O=c1cc(CSc2n[nH]c(=O)n2C2CC2)c2ccc(O)cc2o1,-14%,5%
CCOC(=O)C1=C(O)C(=O)N(c2ccc(S(N)(=O)=O)cc2)C1c1ccc([N+](=O)[O-])cc1 (centres undefined),-5%,-7%
COC(=O)CCC(=O)NNC(=O)c1ccc(Br)cc1,-26%,-19%
CCCN(CC(=O)Nc1ccccc1C)C(=O)c1ccc(NC2CC2)c([N+](=O)[O-])c1,-12%,-9%
COc1ccccc1N(C)S(=O)(=O)c1ccc(Cl)c(C(=O)NCCCN2CCOCC2)c1,-8%,-10%
O=C1/C(=C/C=C/c2ccco2)SC(=S)N1c1ccc(O)cc1,u,5%
CCOC(=O)C(NS(=O)(=O)c1ccccc1)(C(F)(F)F)P(=O)(OC(C)C)OC(C)C (centres undefined),x,-14%
CCOC(=O)c1[nH]c(CO)c(C(=O)OCC)c1C,3%,4%
O=[N+]([O-])c1ccc(/C=C/c2ccc3cccc([N+](=O)[O-])c3n2)cc1,-4%,-11%
O=C(NS(=O)(=O)NC1CCCCC1)C1=C(N2CCCC2)COC1=O,i,-1%
Cc1cccn2cc(COc3cccc([N+](=O)[O-])c3)nc12,-8%,-12%
Cc1ccc(C)c(C2=NNC(=O)CC2)c1,-5%,-8%
C/C(Cl)=C/Cn1c(N2CCCC2)nc2c1c(=O)n(C)c(=O)n2C,-3%,-5%
Cc1ccc(CNC(=O)C2(c3cccs3)CCOCC2)cc1,-12%,-7%&-14%
Cc1ccc(C2(CCN)CCOC(C(C)C)C2)cc1 (centres undefined),u,-20%

# Already shown: an excerpt of the list.
SMILES,Vaccinia mCherry,Vaccinia Venus
CN(Cc1ccccc1)C(=O)c1ccc(NC(=O)c2ccccc2)cc1,-11%,-21%
CCCCC1=CC2=C(c3ccco3)C(=O)C(C)(OC(=O)c3ccc(OC)cc3)C(=O)C2=CN1CCN1CCOCC1 (centres undefined),i,-8%
O=c1cc(O)c2ccccc2[nH]1,-12%,-11%
COC(=O)COc1cccc(NC(=O)c2cccs2)c1,-20%,-2%

# (next part)
SMILES,Vaccinia mCherry,Vaccinia Venus
Cc1cccc(OCC(=O)Nc2nc3ccc([N+](=O)[O-])cc3s2)c1,i,0%
Cc1ccc(NCC(=O)N/N=C\C(Br)=C\c2ccccc2)cc1,i,-9%
Cc1ccccc1S(=O)Cc1ccc(C(=O)N2CCN(C3CCCCC3)CC2)o1 (centres undefined),u,-10%
N#CCSc1nc2ccccc2o1,-16%,-5%
CCN(CC)c1ccc(O)c(C=Nc2ccc(C)c(C)c2)c1,-5%,-10%
O=C(c1cc(-c2ccc(Cl)cc2)on1)N1CCc2ccccc2C1,-20%,1%
N#CC1(NC(=O)COC(=O)CCN=C2NS(=O)(=O)c3ccccc32)CCCCC1,-18%,-6%
O=C1NC(=O)C(=Cc2ccccc2[N+](=O)[O-])C(=O)N1,0%,3%
CCCCNc1nc2ccccc2c2nc(-c3ccccc3)nn12,-9%,3%
CCc1nc2ccc(C(=O)NCCCN(C)C)cn2c1N(CC)CCOC,8%,-1%
CCOc1ccc(C(c2c(NC(=O)c3ccccc3)sc(C)c2C)N2CCN(CCO)CC2)cc1 (centres undefined),-14%,-15%
CC(Oc1ccccc1)C(=O)N(CCC1=CCCCC1)c1c(N)n(Cc2ccccc2)c(=O)[nH]c1=O (centres undefined),-23%,-14%
CC(C)NC(=O)C1(C)CSCC(=O)N1CCCn1ccnc1 (centres undefined),-7%,13%
Cc1ccccc1-c1noc(-c2ccccc2C(=O)N2CCCC2)n1,x,0%
CCN(CC)C1=CC2=CC(=C(C#N)C#N)CCC2CC1 (centres undefined),i,x
COC(=O)[C@@]1(C(C)C)N=C(c2cc(OC)c(OC)c(OC)c2)[C@]2(O1)C(=O)N(C)c1ccc(Br)cc12,5%,-12%
CN(CCO)c1ccc2c(c1)OC[C@@H](Cc1ccccc1)NS2(=O)=O,8%,3%
O=c1sc(N2CCN(c3ccc(F)cc3)CC2)nc2ccsc12,5%,-2%
COc1ccc(CCC(C)Nc2ccc(F)c(F)c2)cc1 (centres undefined),-3%,-6%
Cc1ccc(-c2cc(C(=O)NCC3(N(C)C)CCCCC3)c3ccccc3n2)o1,-14%,-21%
Cn1c(N)c(C(=O)COC(=O)C2CCN(S(=O)(=O)c3cccs3)CC2)c(=O)n(C)c1=O,i,-9%
O=C(/C=C/C(Cl)(Cl)Cl)Nc1ccc(Cl)cc1,-11%,-25%
O=C1N(c2ccccc2)C(c2ccc(Cl)cc2)N2CCCN12 (centres undefined),-16%,-9%
O=C(Nc1scc(-c2ccc(F)cc2)c1C(=O)O)c1ccco1,-2%,-23%
CCOC(=O)N1CCN(CC(=O)Nc2c(C(=O)OC)[nH]c3ccc(Cl)cc23)CC1,u,-27%
SMILES,Vaccinia mCherry,Vaccinia Venus
CCc1sc(-c2cc3cccc(OC)c3oc2=O)nc1-c1cc(C)ccc1C,1%,-20%
Cc1ccc(C(=O)N2CCC3(CC2)Oc2ccc(Cl)cc2C(=O)C32CC(c3ccccc3)=NO2)s1 (centres undefined),u,-19%
Cn1c(=O)c2c(ncn2CC(=O)Nc2cc(S(=O)(=O)N3CCCCC3)ccc2O)n(C)c1=O,-9%,-2%
Cc1ccc(C(=O)CC(C(=O)O)n2cnc([N+](=O)[O-])n2)cc1 (centres undefined),i,-1%
CC(NC(=O)Cn1c(=O)oc2cc(S(=O)(=O)NCc3ccccc3)ccc21)c1ccccc1 (centres undefined),-20%,-17%
O=C(CCN1CCCC1)Nc1cccc(Br)c1,x,1%
CCCN(C)C[C@@H]1OCc2cnnn2CCCC(=O)N([C@H](C)CO)C[C@H]1C,-14%,-4%
O=C(/C=C/c1ccccc1)NCCCNC(=O)/C=C/c1ccccc1,16%,6%
Nc1cc(N2CCNCC2)c([N+](=O)[O-])cc1Cl,i,-7%
CCc1ccc(C(=O)C(C)OC(=O)C2COc3ccccc3O2)cc1 (centres undefined),-15%,-12%
C=CCn1c(SCc2ccc(Br)cc2F)nc2cc(C(=O)O)ccc2c1=O,-22%,-2%
COc1ccc(S(=O)(=O)Nc2ccc3cn[nH]c3c2)cc1C,-16%,-14%
CC(C)(C)OC(=O)N1CCN(C(=O)c2[nH]cnc2C(=O)Nc2nccs2)CC1,i,-11%
COc1ccc2[nH]c(-c3ccccc3)cc2c1,-17%,-10%
O=[N+]([O-])c1cccc(/C=N/NC2CCS(=O)(=O)C2)c1 (centres undefined),i,-8%
CN1C2CNC(=O)CC1C1CCC2C1 (centres undefined),-3%,1%
Cc1ccc(C#CC(C)(O)C(C)(C)C)cn1 (centres undefined),i,-7%
C=CCn1c(-c2ccc(Cl)cc2)ccc(C#N)c1=O,-4%,-6%
CN(CC(=O)Nc1ccc(F)cc1)C(=O)COC(=O)/C=C/c1ccc(OC(F)F)cc1,i,-7%
CC(C)OCCCNC(=O)c1ccc2c(c1)NC(=O)c1ccccc1S2,-7%&-21%,-30%&-13%
COCCn1c(C)cc(C2=NNC(=Nc3ccccc3F)SC2)c1C,-15%,-7%
CCOc1ncccc1C(=O)OCC(=O)NCCc1ccccc1,x,-10%
CCOC(=O)/C(O)=C/c1ncc(C(F)(F)F)cc1Cl,x,-2%
CCCCN(CCCC)c1nc(-c2ccccc2)nc2ccccc12,-5%,-1%
Cc1cc(C)c(NC(=O)Nc2ccccc2)c(Cl)c1,-12%,-7%

# A different layout for 7 compounds above:
molecule | Vaccinia mCherry | Vaccinia Venus
COc1ccc(C(=O)Oc2cc(-c3ccc4c(c3)OCO4)cc(=O)c3c(C)oc(C)c23)cc1 | -2% | 27%
Cc1ccc(N2Cc3ccccc3C2=N)cc1[N+](=O)[O-] | -19% | -16%
O=[N+]([O-])c1cc(S(=O)(=O)N2CCOCC2)ccc1OCc1ccccc1C(F)(F)F | -14% | -17%
COCCCNC(=O)/C(C#N)=C/c1ccc(F)cc1 | -6% | -3%
O=C(Cn1c(SCC(=O)Nc2ccc(F)cc2)nc2ccccc21)NCc1ccccc1Cl | u | -25%
O=C(COc1c(Br)cc(Br)c2cccnc12)N1CCc2ccccc2C1 | -1% | -19%
COc1cccc(CC(=NO)c2cccc(OC)c2)c1 | u | -13%

# 4 entries from above, reformatted:
Cc1ccc(C(=O)CC(C(=O)O)n2cnc([N+](=O)[O-])n2)cc1 (centres undefined)
  Vaccinia mCherry: i
  Vaccinia Venus: -1%
CC(NC(=O)Cn1c(=O)oc2cc(S(=O)(=O)NCc3ccccc3)ccc21)c1ccccc1 (centres undefined)
  Vaccinia mCherry: -20%
  Vaccinia Venus: -17%
O=C(CCN1CCCC1)Nc1cccc(Br)c1
  Vaccinia mCherry: x
  Vaccinia Venus: 1%
CCCN(C)C[C@@H]1OCc2cnnn2CCCC(=O)N([C@H](C)CO)C[C@H]1C
  Vaccinia mCherry: -14%
  Vaccinia Venus: -4%

# (cont.)
SMILES,Vaccinia mCherry,Vaccinia Venus
CCN(Cc1ccncc1)Cc1c(O)ccc2cc(Br)ccc12,-10%,-3%
CCOC(=O)c1c(CN(C)C)n(C)c2ccc(OC(C)=O)cc12,x,13%
CCCCN(C)S(=O)(=O)c1c(C)[nH]c(=O)[nH]c1=O,-2%,-11%
CCOC(=O)c1sc(N(C)C)nc1-c1ccccc1,0%,-1%
CNc1nc(N)nc(-c2cc(Cl)ccc2OC)n1,-14%,-10%
COc1cc(/C=N/NC(=O)c2nnn(-c3nonc3N)c2C(C)C)ccc1OCc1ccc(F)cc1,-9%,u
FC(F)(F)c1cc(C(F)(F)F)c2ccc(N3CCN(c4ncccn4)CC3)nc2n1,-18%,-4%
C[C@@H]1O[C@@H](OC[C@H]2O[C@@H](Oc3cc(O)c4c(=O)cc(-c5ccc(O)c(O)c5)oc4c3)[C@H](O)[C@@H](O)[C@@H]2O)[C@H](O)[C@H](O)[C@H]1O,i,0%
Cc1cc(C)cc(NC2=CC(c3cccc(F)c3)N(c3cc(C)cc(C)c3)C2=O)c1 (centres undefined),-2%,-5%
Cc1ccccc1NC(=O)c1ocnc1C,-9%,1%
Cc1cc(C)nc(NC(=O)CCCC(=O)O)c1,x,-10%
CN(CC1CCCO1)S(=O)(=O)c1ccc(C(=O)Nc2nc(-c3ccccn3)cs2)cc1 (centres undefined),u,u
